MgrA DNA FP = S. aureus MgrA-DNA binding modulation; fluorescence polarization; inhibition, %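 (about 10 µg/mL by stock and volumes)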; actives 0.13% (n = 84,000); AID 602314;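 active = above 50% in either of two replicates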;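 also: 0% = protein plus DNA without compound and 100% = DNA alone without protein; higher means less MgrA bound to DNA so lower polarization; one replicate is shown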
Sa helicase inh = blocks Staphylococcus aureus DNA helicase. actives 0.05% (n = 120,000). inhibition, %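 (tested at about 80 µM)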. purified S. aureus helicase, fluorescence unwinding assay; about half of the hits fall short of the stated cut;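 active = both duplicates at 50% or more, or one of them with a favoured structure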;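 also: 0% = mean of negative control wells and 100% = mean of positive control wells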
* hit, by the source's call; . = no result given. The list is partial (hit frequency here may not be typical).

Every second line gives: MgrA DNA FP | Sa helicase inh
Cc1c(/C=N/O)sc2ccccc12
    1.5 | .
N#Cc1c(F)cccc1C(C#N)(c1ccccc1)N1CCOCC1 (centres undefined)
    -0.2 | .
C=CCc1cccc2cc(C(=O)O)c(=O)oc12
    2.2 | 14.0
NC(=O)NNC1=Nc2cccc3cccc1c23
    . | 11.0
CCCCOc1ccccc1-c1nc(SCC(=O)O)n[nH]1
    -1.6 | 7.0
CCOC(=O)c1c(N2C(=O)CC3(CCCC3)C2=O)sc(C)c1-c1ccccc1
    -0.4 | .
Cc1c2cnn(-c3ccccc3)c(=O)c2c(C)n1CCCC(=O)N1CCCC1
    . | 5.0
O=C(CCC(=O)c1cccs1)NCC1CCCO1 (centres undefined)
    . | 0.0
Cc1cc2ccccc2n1CCNC(=O)c1cccs1
    . | -26.0
OCCN1CNC(=S)NC1
    6.2 | .
CCOc1ccc(NC(=O)CN(C2=NC3CS(=O)(=O)CC3S2)c2ccccc2)cc1 (centres undefined)
    . | 0.0
O=CNCc1nc2ccccc2n1Cc1ccccc1
    -0.6 | 20.0
CNc1nc(NCc2ccco2)c2ccccc2n1
    -1.8 | 2.0
CCn1cc(C(=O)NCCCN2CCN(c3cccc(Cl)c3)CC2)c(=O)c2cc(S(=O)(=O)N(C)C)ccc21
    . | -18.0
Cc1cc2c(n1-c1ccc(Br)cc1)CC(C)(C)CC2=O
    1.5 | -2.0

Additional records follow:
Every second line gives: MgrA DNA FP | Sa helicase inh
CCCCC1(C(=O)OCC)CC(CSC(=N)N)OC1=O (centres undefined)
    . | 12.0
Cc1ccc(-n2nc(C)cc2NC(=O)CSc2nnc(C3COc4ccccc4O3)n2C)cc1 (centres undefined)
    . | 3.0
COc1c(CO)cc(C)cc1CO
    -2.2 | .
Nc1ccc2c3c(cccc13)C(=O)N(c1ccccc1)C2=O
    . | -127.0
CCN(C(=O)CO)c1c(N)n(Cc2ccccc2)c(=O)n(CC(=O)Nc2ccc(C)c(C)c2)c1=O
    . | 5.0
c1cc(N2CCCCC2)nnc1N1CCCCC1
    9.6 | 8.0
O=C(NC1CCCCC1)C1CC1c1ccccc1 (centres undefined)
    4.0 | 10.0
CC(C)N(C(=S)NC(=O)C1CC1)c1ccccn1
    . | -15.0
CCOc1ccc(C(=O)Nc2cc3[nH]c(=O)[nH]c3cc2C)cc1OCC
    . | 4.0
Cn1c(=O)c2c(SCc3cccc(C(F)(F)F)c3)nc(-c3ccco3)nc2n(C)c1=O
    0.4 | 5.0
O=C(Nc1ccccn1)NC12CC3CC(CC(C3)C1)C2
    1.2 | -5.0
CCOC(=O)c1ccc(NC(=O)CO/N=C/c2ccc3c(c2)OCO3)cc1
    . | -24.0
O=C(NCCSc1ccc(C(F)(F)F)cn1)c1ccc(Cl)cc1
    1.1 | .
CCN1CCN(C(=O)c2cn(-c3ccccc3)nc2-c2cccs2)CC1
    2.4 | -11.0
CCOc1ccc2nc(NN)sc2c1
    . | 4.0

(listing goes on)
Every second line gives: MgrA DNA FP | Sa helicase inh
O=C(Cc1ccccc1)N1CCC(c2ccccc2)=N1
    -2.9 | 8.0
CCOC(=O)c1[nH]nc2c1COc1ccccc1-2
    -0.9 | 14.0
CCCCc1ccc(Oc2cc(N3CCOCC3)nc(-c3ccccc3)n2)cc1
    3.5 | 9.0
COC(=O)C1=C(OS(=O)(=O)c2ccc(C)cc2)CSC1
    -2.1 | .
COC(=O)c1ccn(COc2ccccc2Cl)n1
    -2.2 | 19.0
Cc1nnc(NS(=O)(=O)c2ccc(OC(F)(F)F)cc2)s1
    0.5 | .
Cc1c(C#N)c(NC(=O)CSc2nc3ccccc3s2)n(CC2CCCO2)c1C (centres undefined)
    . | -1.0
CC(C)c1ccc(S(=O)(=O)Nc2cc(SCC(=O)O)c(O)c3ccccc23)cc1
    90.1* | 36.0
O=C1NC(=Nc2ccccc2)S/C1=C/c1cc(Br)cc(Cl)c1O
    3.3 | .
COc1ccc(N(CC(=O)N2CCc3ccccc32)S(=O)(=O)c2c(C)n[nH]c2C)cc1
    . | 7.0
COc1cccc(-c2cc(C(=O)N3CCCCC3C)no2)c1 (centres undefined)
    1.8 | 8.0
Cc1noc(C)c1COc1cccc(C(=O)OC2CCCCC2=O)c1 (centres undefined)
    . | 4.0
CCC(=O)c1ccc(OCC(O)CN(C)Cc2ccccc2OC)cc1 (centres undefined)
    . | -6.0
CCOc1ccc(-c2cc(C#N)on2)cc1
    3.0 | 7.0
CCN(Cc1ccccc1)C(=O)CCn1ccc(C)n1
    . | 2.0

Additional compounds follow:
Every second line gives: MgrA DNA FP | Sa helicase inh
COc1cccc2cc(C(=O)C3=C(O)C(=O)N(CCCN(C)C)C3c3ccncc3)oc12 (centres undefined)
    1.1 | 3.0
Cc1nc(-c2cc(-c3nc(-c4ccc(C(F)(F)F)cc4)no3)no2)cs1
    . | 11.0
C=CCN1C(=O)/C(=c2\sc3n(c2=O)C(c2ccccc2)C(C(=O)OCC)=C(C)N=3)c2ccccc21 (centres undefined)
    -1.9 | .
O=C(N/N=C1\CCCc2ccccc21)c1ccc(O)cc1
    . | -8.0
Cc1ccc(CN2COc3c(cc4c5c(c(=O)oc4c3C)CCC5)C2)cc1
    . | -9.0
COC(=O)c1ccccc1NS(=O)(=O)c1ccccc1
    -0.7 | 3.0
CC1CCc2sc3ncnc(NCCCN(C)C)c3c2C1 (centres undefined)
    0.9 | -4.0
OC(C#CCN1CCOCC1)(c1ccccc1)c1ccccc1
    -2.1 | -11.0
O=C(CSc1nnc2n1CCCCC2)Nc1c(Cl)cccc1Cl
    . | -6.0
COc1ccc(Nc2nnc(SCc3nc4ccc(Cl)cc4n3CCO)s2)cc1
    . | -14.0
CCCOc1ccccc1/C=N/NC(=S)Nc1cc(Cl)ccc1Cl
    0.1 | .
CCCCc1cc(=O)oc2cc(C)c3c(C)c(C)oc3c12
    . | -22.0
CC(=O)Nc1cc(C(=O)c2ccc(Cl)cc2)nn(-c2ccccc2)c1=O
    -1.6 | .
O=C1c2ccc(Oc3cccc(N4C(=O)C5C6C=CC(C6)C5C4=O)c3)cc2C(=O)N1c1ccccc1 (centres undefined)
    -0.2 | .
CSc1ccc(/C=C2\C(=O)N(C)N=C2C)s1
    7.3 | .

(next part)
Every second line gives: MgrA DNA FP | Sa helicase inh
COc1ccc(Nc2c(Cl)cc(OC)cc2Cl)cc1
    -1.5 | .
CCOC(=O)c1ccc2c(c1)nc(SCC(=O)Nc1ccccc1F)n2CC
    . | 5.0
CCCN1CCC(N2CCCC(C(=O)N(C)CCc3ccc(OC)c(OC)c3)C2)CC1 (centres undefined)
    0.3 | -9.0
O=C(O)CCC(=O)Nc1sc2c(c1C(=O)O)CCCC2
    2.0 | 8.0
OC(CNCc1ccco1)COc1ccccc1 (centres undefined)
    0.8 | -15.0
Cc1ccc(Cn2c(SCc3cccc(C(F)(F)F)c3)nc3ccncc32)cc1
    -0.3 | -11.0
CCC(=O)c1cn(S(=O)(=O)c2ccc(C)cc2)c2ccccc12
    1.8 | 15.0
O=S(=O)(c1ccccc1)N(CCO)Cc1ccccc1
    1.5 | 7.0
CC1CCC(NC(=O)c2cc3oc4ccccc4c3n2C)CC1 (centres undefined)
    . | -21.0
N#CC1=C(N)NC(SCC(=O)Nc2cccc3ccccc23)=C(C#N)C12CCCCC2
    . | 4.0
CCN(CC)c1ncnc2sc3c(c12)CCCC3
    -0.8 | .
Cc1nc(-c2ccc(Cl)cc2)sc1C(C)O (centres undefined)
    -2.5 | .
c1ccc(-c2cc3ccsc3o2)cc1
    1.5 | -1.0
CCOC(=O)C1=C(c2ccccc2)Nc2ncnn2C1c1ccc(OCc2ccccc2)cc1 (centres undefined)
    -0.2 | 9.0
O=C(C(Sc1ccccc1)c1ccccc1)N1CCOCC1 (centres undefined)
    . | -17.0

Continuation.
Every second line gives: MgrA DNA FP | Sa helicase inh
COc1ccc(-c2nc3ccccc3n2CCOc2ccccc2)cc1
    -1.2 | -16.0
CC1=C2C(=NCCN1)C(=O)N(c1ccccc1)C2c1cccs1 (centres undefined)
    . | -28.0
C/C(CC12CC3CC(CC(C3)C1)C2)=N\NC(N)=O
    . | -3.0
CCN1C(=O)/C(=C/c2ccc(-c3ccc(Br)cc3)o2)N(CC)C1=S
    3.1 | 18.0
COC(=O)c1cccc(OCC(O)CN(C)Cc2ccc(OC(F)F)c(OC)c2)c1 (centres undefined)
    . | -7.0
Cc1ccc2cc3cc(C(=O)NC(C)C)sc3nc2c1
    . | 3.0
O=c1ccc(-c2ccc(S(=O)(=O)NCCc3cccs3)o2)n[nH]1
    . | 7.0
COc1ccc(O)c(C(=O)c2cnn(C(=S)Nc3ccccc3)c2N)c1
    . | 0.0
Cc1ccc(-c2n[nH]c(=O)c3ccccc23)cc1S(N)(=O)=O
    . | 0.0
O=C(Oc1ccc(F)cc1)c1cccs1
    -3.1 | .
CSc1cc(-c2ccncc2)nc(-c2cccs2)c1
    1.9 | .
CC1(C)CC(=O)c2cnc(N)nc2C1
    -34.3 | 21.0
OC(COc1ccc(-c2ccccc2)cc1)CN1CCCCC1 (centres undefined)
    . | 22.0
COc1cc2c(cc1OC)CN(Cn1cnc3ccccc3c1=O)CC2
    . | -4.0
COc1ccc(C2CC(=O)N(CC(=O)N3CCOCC3)c3ccccc3S2)cc1 (centres undefined)
    10.0 | 12.0

More compounds follow:
Every second line gives: MgrA DNA FP | Sa helicase inh
COc1ccc2oc(=O)c(C(N)=O)cc2c1
    0.2 | 16.0
COc1ccccc1CN(C)C(=O)CN1CCN(C(=O)c2cccs2)CC1
    . | -5.0
Nc1cc(-c2ccccc2)n2c(n1)nc1ccccc12
    -2.9 | .
NC(=O)CCNC12CC3CC(CC(C3)C1)C2
    -1.3 | 15.0
COC(=O)/C=C1/C(=O)N/C(=N\c2nc(C)cc(C)n2)N1c1cccc(C)c1
    1.8 | 5.0
O=C(CSCC(O)Cn1c2ccccc2c2ccccc21)Nc1ccccc1 (centres undefined)
    . | 12.0
CCOc1cc(C(=O)Nc2cc(Cl)ccc2OC)cc(OCC)c1OCC
    1.1 | 6.0
Cc1cc(S(=O)(=O)N2CCOCC2)ccc1OCC(=O)Nc1ccc2c(c1)OCO2
    -0.8 | -1.0
OC(COc1ccc(F)cc1)CN1CCN(c2ccccc2F)CC1 (centres undefined)
    . | 11.0
CCOC(=O)COc1ccccc1C(O)C#N (centres undefined)
    -1.9 | .
Cc1ccc(-c2nc3cc(C)c(C)cc3nc2-c2ccc(Cl)cc2)cc1
    -1.5 | .
COC(=O)c1cc(S(=O)(=O)N2CCN(c3cccc(C(F)(F)F)c3)CC2)cn1C
    0.8 | 20.0
O=C(COc1ccc(-c2nnco2)cc1)N(Cc1cccs1)c1ccc2c(c1)OCCO2
    . | -2.0
O=C(CCN1C(=O)/C(=C\c2ccco2)SC1=S)NN1CCOCC1
    . | -17.0
Cc1cc(Cl)ccc1OCCN(C)CCO
    3.3 | 6.0

The list goes on.
Every second line gives: MgrA DNA FP | Sa helicase inh
O=C(Nc1cc(C(F)(F)F)cc(C(F)(F)F)c1)C(Cl)(Cl)Cl
    1.1 | .
COC(=O)NC1CCS(=O)(=O)C1 (centres undefined)
    0.8 | -4.0
CC1CCN(CC(=O)NC2CC2)CC1
    1.0 | 17.0
CCOC(=O)Cc1ccc(-n2c(C)ccc2C)cc1
    6.2 | 0.0
CC(=O)Nc1nnc(C)s1
    2.5 | 17.0
CC(C)[C@H](NC(N)=O)C(=O)Nc1ccc(Cl)c(Cl)c1
    . | 14.0
COCCCn1c(SCc2ccc(C(=O)O)cc2)n[nH]c1=O
    . | -6.0
CCc1cccc(CC)c1NC(=O)COc1ccccc1C(=O)N1CCOCC1
    3.5 | 16.0
CCc1ccc(NC2=NC(C(=O)Nc3ccccc3)CC(=O)N2)cc1 (centres undefined)
    5.3 | 10.0
O=C(NN1C(=O)/C(=C/c2ccc(-c3ccc([N+](=O)[O-])cc3)o2)SC1=S)c1ccccc1[N+](=O)[O-]
    -1.0 | .
Cn1cccc1C(=O)OCC(=O)N(Cc1ccccc1)C1CCS(=O)(=O)C1 (centres undefined)
    . | -7.0
Cn1c(=O)c2cc(S(=O)(=O)N3CCOCC3)ccc2n(C)c1=O
    1.0 | -3.0
O=Nc1ccc(NNC(=O)c2ccccc2O)cc1
    . | 39.0
Cc1ccc(C2C3C(=O)N(C)C(=O)C3ON2c2ccccc2)cc1 (centres undefined)
    1.8 | 12.0
Oc1ccc(-c2[nH]ncc2-c2ccc(Cl)cc2)c(O)c1
    . | 8.0

Later entries
Every second line gives: MgrA DNA FP | Sa helicase inh
COc1ccc(S(N)(=O)=O)cc1C(=O)NCC(c1cccs1)N(C)C (centres undefined)
    . | -3.0
Cc1c(C)c(C)c(CNC(=O)c2ccccc2)c(C)c1C
    1.0 | .
O=C(CSc1ccc(-c2ccco2)nn1)Nc1ccccc1
    . | 17.0
CCC(CC)NS(=O)(=O)c1cccc(C(=O)NCCOc2ccccc2)c1
    -3.0 | 7.0
Cc1c(N=CN(C)C)c(=O)n(-c2ccccc2)n1C
    . | 13.0
CC1CCCCN1S(=O)(=O)c1ccccc1C(=O)O (centres undefined)
    . | -1.0

Compound profiles, as listed above:
`Cc1c(C)c(C)c(CNC(=O)c2ccccc2)c(C)c1C` is listed as MgrA DNA FP: 1.0; Sa helicase inh: .
`COc1ccc(S(N)(=O)=O)cc1C(=O)NCC(c1cccs1)N(C)C` (centres undefined) is listed as MgrA DNA FP: .; Sa helicase inh: -3.0

Part of the list above, in CSV form.
compound,MgrA DNA FP,Sa helicase inh
CC1CCCCN1S(=O)(=O)c1ccccc1C(=O)O (centres undefined),.,-1.0
CCC(CC)NS(=O)(=O)c1cccc(C(=O)NCCOc2ccccc2)c1,-3.0,7.0
Cc1c(C)c(C)c(CNC(=O)c2ccccc2)c(C)c1C,1.0,.

Compound activity (PubChem)
